# High-throughput results as filed in PubChem BioAssay.
# eIF4H FP inh: inhibitors of RNA binding by human eIF4H. Q15056. eIF4H fluorescence polarization binding assay. inhibition, % at 35 µM. 290,000 tested, 0.94% active;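 active means 50% or more with normal probe brightness, or confirmed in later tests; inconclusive means above 50% with abnormal brightness, or retests that disagree; inactive means below 50% or failed in later tests; about a fifth of its hits are not listed in these tables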;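 further: calls also rest on retests at 20 µM and on dose response follow-up; 0% = protein and probe with vehicle and 100% = probe without protein; strong numbers were not always called active; many hits fall short of the cut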
# Rce1 inhib: yeast Ras-converting enzyme inhibition; Q03530; yeast membranes, quenched prenylated peptide cleavage fluorescence; calls only; 290,000 tested, 0.27% active;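 active means fall in fluorescence gain of 50% or more versus controls, with final raw signal at or below 3038400; inconclusive means same 50% fall but final raw signal above 3038400; inactive means fall in fluorescence gain under 50%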;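 further: plate controls were neutral control wells for no effect and wells lacking membranes for full effect; tested at 10 µM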
# Yeast UUG start: alters start codon recognition fidelity in yeast; 350,000 tested, 0.13% active; S. cerevisiae UUG-firefly luciferase reporter, luminescence/redox ratio; activity score, % at 18.7 µM;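 active means replicate mean at a twofold rise or more, about +100% in these data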;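 further: firefly luciferase made from a UUG start codon reports start codon fidelity; reporter light over untreated wells divided by growth signal over untreated wells; some hits fall short of that in this replicate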
# HIV Env fusion: inhibitors of HIV Env-mediated cell fusion. 360,000 tested, 1.1% active. inhibition, % at 12.3 µM. HeLa-JRFL Env/CEM21 cell fusion, luciferase;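 active means mean replicate inhibition score of at least 50 and every replicate individually at or above 50; inconclusive means only one of the two criteria met; inactive means mean below 50 and not all replicates reaching 50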;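 further: 0% = plate neutral controls and 100% = maraviroc near 300 nM; one replicate is shown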
# CSC inhib: cancer stem cell inhibition | 300,000 tested, 1.1% active | cancer stem cell-like cells viability, luminescence | inhibition, % at 7.5 µM;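 active means mean at 75% or more and at least half the replicates too; inconclusive means mean and replicates disagree; tested in HMLE shEcad cells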;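 further: 0% = median of negative and 100% = median of positive control wells; the first replicate is given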
# PABP polyA inh: PABP-poly(A) binding inhibition; inhibition, % at 35 µM; AID 2014; P11940; 290,000 tested, 1% active; PABP-poly(A) RNA binding, fluorescence polarization;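 active means 50% or more with normal probe brightness, or confirmed in later tests; inconclusive means above 50% with abnormal brightness, or retests that disagree; inactive means below 50% or failed in later tests; about a fifth of its hits are not listed in these tables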;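 further: calls also rest on retests at 20 µM and on dose response follow-up; controls were probe without protein and protein plus probe with vehicle; some compounds called inactive have numbers as strong as hits; many hits fall short of the cut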
# Target sequence (P11940 whole entry, looked up): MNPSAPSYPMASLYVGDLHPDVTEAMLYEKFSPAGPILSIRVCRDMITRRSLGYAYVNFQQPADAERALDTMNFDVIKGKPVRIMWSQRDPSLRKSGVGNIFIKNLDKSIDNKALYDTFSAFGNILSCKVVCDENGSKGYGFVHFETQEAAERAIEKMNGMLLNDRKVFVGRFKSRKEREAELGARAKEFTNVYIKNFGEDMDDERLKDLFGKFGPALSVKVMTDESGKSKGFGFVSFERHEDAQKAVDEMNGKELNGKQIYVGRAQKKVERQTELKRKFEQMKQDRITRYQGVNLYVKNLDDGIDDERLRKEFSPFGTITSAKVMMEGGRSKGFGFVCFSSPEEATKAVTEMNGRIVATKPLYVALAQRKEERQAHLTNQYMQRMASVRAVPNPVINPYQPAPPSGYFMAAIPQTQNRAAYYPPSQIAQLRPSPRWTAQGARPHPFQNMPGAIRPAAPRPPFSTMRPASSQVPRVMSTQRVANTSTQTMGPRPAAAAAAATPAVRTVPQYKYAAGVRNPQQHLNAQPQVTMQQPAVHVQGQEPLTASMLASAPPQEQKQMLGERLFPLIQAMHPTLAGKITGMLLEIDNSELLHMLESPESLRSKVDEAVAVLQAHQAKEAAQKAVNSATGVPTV
# MT1-MMP act inh: blocks activation of human MT1-MMP; HT1080 RFP-PRO-GFP cells, GFP/RFP ratio fluorescence, overnight; percent of plate control window, DMSO zero; GFP/RFP ratio change, % at 20 µM; 360,000 tested, 0.061% active; AID 651647;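 active means GFP/RFP ratio change of at least 30% with cell ATP level not reduced by more than half and red fluorescence within 50% of control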; further: strong numbers were not always called active
#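 Material – HT1080 RFP-PRO-GFP cells · Control set – DMSO wells and RFP-L50D-GFP cells · Incubation – overnight cell settling, then overnight compound exposure, 37 °C, 5% CO2 · Compound dosing – single-point 20 µM compound, 1% DMSO · Read-out – GFP/RFP fluorescence ratio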
# eIF4H FP inh retest: recorded beside eIF4H FP inh, whose call it bears; inhibition, %; compound at 20 µM; confirmation average;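 mean of two retest wells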
# MT1-MMP act inh RFP: also measured in MT1-MMP act inh; calls as there; RFP signal change, %; measured here: RFP expression control read;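 0 = vehicle wells; hits needed this value within 50% of zero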
# Active calls of the source: *; i = inactive; ? = inconclusive; nt = no result given; & = joins results of further samples; [ ] = another dose, or the depositor's remark. These rows are one share of the data. The share of hits here may be higher or lower than overall.
SMILES,eIF4H FP inh,Rce1 inhib,Yeast UUG start,HIV Env fusion,CSC inhib,PABP polyA inh,MT1-MMP act inh,MT1-MMP act inh RFP,others
CCOC(=O)C1CCCN(S(=O)(=O)CCNC(=O)c2ccc(F)cc2)C1 (stereo not drawn),nt,i,-10,-15,nt,nt,-3,1,
CC(=O)c1ccc(OC2(C)CCN(Cc3cc4ccccc4[nH]3)C2)cc1 (stereo not drawn),nt,nt,-1,?,nt,nt,3,-3,
CN(CC(=O)Nc1ccccc1Cl)C(=O)COC(=O)c1ccc(S(=O)(=O)C(F)F)cc1,nt,i,-13,-8,-1,nt,3,1,
CCN(C(=O)CSc1nnc(Cc2ccccc2F)n1N)C1CCS(=O)(=O)C1 (stereo not drawn),1,i,nt,nt,-18,-1,7,5,
CCCSc1nc2sc3c(c2c(=O)[nH]1)CC(C)CC3 (stereo not drawn),-8,i,nt,10,-5,3,-6,1,
COc1cc(C2C(C(=O)c3cccs3)=C(O)C(=O)N2CCN2CCOCC2)ccc1OCCC(C)C (stereo not drawn),nt,i,-11,4,-8,nt,-1,5,
O=C1Nc2ccc(S(=O)(=O)NCCC3=CCCCC3)c3cccc1c23,1,i,1,nt,7,-1,-2,-12,
CCNc1nc(NC(C)C)nc(Oc2ccc(OCCOc3ccc(C)cc3)nn2)n1,1,i,-15,21,-5,0,4,2,
CCCCC#Cc1ccc2c(c1)COc1c3ccccc3nn1-2,-9,i,-26,-90,38,-5,3,-2,
O=C(Nc1cccnc1)c1ccc([N+](=O)[O-])cc1Cl,0,i,0,4,nt,3,2,1,
NC(=O)c1cc2cc(Br)ccc2oc1=NCc1ccccc1,-1,i,-3,nt,0,-6,-3,-3,
COc1ccc(Cl)cc1NS(=O)(=O)c1c(C)[nH]c(=O)[nH]c1=O,6,i,-5,-5,4,14,0,0,
O=C(Nc1ccc(F)cc1)c1cccc2ccccc12,-4,i,-2,-17,-4,-7,1,1,
CNC(=S)N1N=C(c2cccs2)CC1c1ccc(OC)cc1 (stereo not drawn),-3,i,-5,-10,-14,8,-12,2,
O=[N+]([O-])c1ccccc1/C=C/CN1CCCCC1,-7,i,13,-32,0,2,-1,1,
CCNC(=S)N(Cc1cccs1)Cc1cc2cc(OCC)ccc2[nH]c1=O,0,i,-2,-14,-29,-7,-9,-6,
CN1CCN(S(=O)(=O)c2ccc(N3CCN(C(c4ccccc4)c4ccccc4)CC3)nc2)CC1,4,i,-21,4,-9,-13,-4,-10,
COc1ccccc1N1CCN(CC(=O)c2c[nH]c3ccccc23)CC1,7,i,-1,15,-2,13,3,6,
CC1=C(C#N)C(/C=N/OCc2ccc(Cl)cc2)CC(=O)N1 (stereo not drawn),2,i,nt,6,0,-2,-2,3,
COc1ccc(C(C(=O)NCC2CCCO2)N(C(=O)c2snc(C(N)=O)c2N)c2ccccc2C)cc1OC (stereo not drawn),-3,i,5,2,-8,-9,-2,-1,
COc1ccc(/C=C2/C(=N)N3C(=NC2=O)Sc2cc(S(C)(=O)=O)ccc23)cc1OC,-4,i,nt,nt,-2,9,nt,nt,
Cc1ccc(-c2csc3ncnc(SCC(N)=O)c23)cc1,9,i,nt,24,-7,-3,nt,nt,
O=C(CSC(=S)N1CCCC1)Nc1ncc(Cl)cc1Cl,nt,i,-8,nt,-20,nt,1,-1,
O=c1c2ccccc2nc(SCc2ccc([N+](=O)[O-])cc2)n1CCCO,1,i,-17,nt,3,4,1,-2,
CC(=O)c1cc2c(cc1NC(=O)CSc1nc3ccccc3[nH]1)OCO2,-6,i,nt,nt,-7,-3,nt,nt,
# Carrying on:
SMILES,eIF4H FP inh,Rce1 inhib,Yeast UUG start,HIV Env fusion,CSC inhib,PABP polyA inh,MT1-MMP act inh,MT1-MMP act inh RFP,others
CCN(C(C)=O)c1nc(CCl)cs1,-7,i,-13,-12,-15,13,2,5,
Cc1noc(C)c1NC(=O)N(C)C[C@H]1Oc2ccc(NC(=O)CCN3CCOCC3)cc2C(=O)N([C@H](C)CO)C[C@@H]1C,nt,nt,-10&-7,-7[16.7 µM],-9,nt,-3,4,
CCOc1ccc(NC(=O)c2ccccc2NC(=O)CN2CCN(C(C)=O)CC2)cc1,nt,i,9,-15,-6,nt,5,-2,
CC(C)n1c(=S)[nH]c2scc(-c3cccs3)c2c1=O,50,i,-16,6,32,?,3,3,eIF4H FP inh retest=39
CCCC(=O)OC1CC(C)N(C(=O)c2ccccc2)c2ccc(C)cc21 (stereo not drawn),-6,i,-1,nt,9,4,5,-3,
O=C1NC(=Nc2ccccc2Br)SC1(CO)CO,7,i,-6,-19,-10,1,1,1,
CC(=O)N1CCC(N(CCN2CCOCC2)C(=S)Nc2ccc(C)cc2)CC1,-2,i,-24,1,3,18,-3,-3,
CCOc1ccc(C(=O)OCCCN(C)C)cc1,-6,i,-14,-15,23,-12,4,6,
COc1ccc(Nc2nc(C)c(C(C)=O)s2)cc1,nt,nt,-14,-96,nt,nt,6,4,
O=C(CN1C(=O)c2cccc3cccc1c23)Nc1cccnc1,-10,i,-16,-46,15,-12,7,1,
COc1cc(NC(=O)[C@@H]2O[C@H](CO)[C@@H](O)[C@H]2O)cc(OC)c1OC,nt,nt,10,10,nt,nt,1,4,
COc1cccc(CN2C(=O)CCC2(C)C(=O)NC2CCCC2)c1 (stereo not drawn),-6,i,1,-35,-24,-2,5,3,
COc1ccc(/C=N/NC(=O)c2cccnc2)cc1Cn1nc([N+](=O)[O-])c(Br)c1C,19,i,nt,-20,-8,1,nt,nt,
CC1CN(CCOc2ccc(F)cc2)CC(C)O1 (stereo not drawn),10,i,-5,-51,nt,5,-1,1,
Cc1ccc(S(=O)(=O)N2CCOCC2)cc1NC(=O)CSc1nnnn1C,1,i,4,-1,-15,1,-13,-10,
O=C(CCNC(=O)c1ccc(Br)cc1)Nc1nc2ccccc2[nH]1,nt,nt,-9,-1,nt,nt,4,-1,
O=C(CN1CCN(c2ccccn2)CC1)Nc1cccc(S(=O)(=O)N2CCOCC2)c1,-4,i,-25,6,4,5,4,-4,
O=C(CNC(c1ccccc1)c1ccccc1)Nc1c(F)cccc1F,-6,i,nt,1,2,-6,-2,-1,
N#CC1=C(N)OC2=C(C(=O)CC(c3ccccc3)C2)C1c1ccc2c(c1)OCO2 (stereo not drawn),10,i,nt,-15,-18,6,-3,-1,
COc1ccccc1C=NN=C(N)C(N)=NN=Cc1ccccc1OC,nt,nt,-21,-31,nt,nt,1,-2,
Cc1cc(=O)[nH]c(N/N=C/c2ccc(-c3ccc([N+](=O)[O-])cc3)o2)n1,-4,i,-17,4,-1,1,-7,1,
Nc1nn(-c2ccccc2)nc1C(=O)OCc1ccccc1,-3,i,-8,-12,-4,-6,1,2,
COc1cc(SC)ccc1C(=O)OCC(=O)NC(=O)NC(C)C,3,i,nt,11,-14,6,2,2,
COc1ccc2c(c1)C(C)=CC(C)(C)N2C(=O)C(C)N1C(=O)c2ccccc2C1=O (stereo not drawn),-5,i,9,35,nt,-5,-5,0,
O=C(O)c1cccc(NC(=S)N/N=C/c2cccnc2)c1,-2,i,nt,-12,-1,2,6,12,

# 4 compounds from above, arranged by molecular weight, low to high.
SMILES,eIF4H FP inh,Rce1 inhib,Yeast UUG start,HIV Env fusion,CSC inhib,PABP polyA inh,MT1-MMP act inh,MT1-MMP act inh RFP,others
CCOc1ccc(C(=O)OCCCN(C)C)cc1,-6,i,-14,-15,23,-12,4,6,
O=C(CN1C(=O)c2cccc3cccc1c23)Nc1cccnc1,-10,i,-16,-46,15,-12,7,1,
O=C1NC(=Nc2ccccc2Br)SC1(CO)CO,7,i,-6,-19,-10,1,1,1,
O=C(CCNC(=O)c1ccc(Br)cc1)Nc1nc2ccccc2[nH]1,nt,nt,-9,-1,nt,nt,4,-1,

# More records:
SMILES,eIF4H FP inh,Rce1 inhib,Yeast UUG start,HIV Env fusion,CSC inhib,PABP polyA inh,MT1-MMP act inh,MT1-MMP act inh RFP,others
CC(C)(C)OC(=O)N1CCC(C(=O)Nc2ccc(C(=O)NCc3ccccc3)cc2)CC1,nt,nt,-8,-18,nt,nt,2,-5,
CCOc1cccc(N2C(=O)CC(n3cnc4ccccc43)C2=O)c1 (stereo not drawn),-3,i,-12,-7,0,3,-11,-2,
CC1CCC(C(C)C)C(OCC[N+](C)(C)C)C1 (stereo not drawn),-15,i,-17,nt,-9,-1,-3,1,
Clc1ccc(Cn2cccc2C2=NCCO2)cc1,-2,i,-14,-42,-4,-2,-7,2,
COc1ccc(Cl)cc1NC(=O)CN(C)C1CCCCC1,2,i,8,14,9,-4,-2,-2,
CCCCNC(=S)N(CCN(CC)CC)Cc1cc2cc3c(cc2[nH]c1=O)OCCO3,-3,i,-5,-6,10,13,2,4,
Cc1ccc(OCC(O)CN2CCC(Cc3ccccc3)CC2)c(C)c1 (stereo not drawn),-4,i,-3,10,24,1,1,1,
CCOc1ccc(OCc2ccc(C(=O)NN=Cc3ccc[nH]3)cc2)cc1,nt,nt,-9,nt,92*,nt,-13,-34,
O=C(CSc1cccs1)NCCc1ccccc1,-4,i,nt,-16,-12,-3,0,2,
COc1ccc(C(=O)C2CCN(CC(=O)NCc3ccccc3)CC2)cc1,-9,i,-14,-2,-15,-5,-2,-2,
CCC(C)[C@H](NC(=O)N1CCCC1)C(=O)OC (stereo partly drawn),-1,i,-17,nt,-7,12,0,-6,
CCC(C)(C(=O)NC1CCCC1)N(CC1CCCO1)C(=O)CNC(=O)c1ccccc1 (stereo not drawn),-6,i,-5,nt,9,14,-3,1,
CN(C)N=Nc1ccc(S(=O)(=O)NC(=O)Cc2ccccc2)cc1,-15,i,-13,4,-10,10,-3,3,
COc1cccc(N2CCN(C(=O)C3CCCN(S(=O)(=O)c4cnc[nH]4)C3)CC2)c1 (stereo not drawn),7,i,-10,0,-4,-7,-1,2,
Cc1oc(-c2ccc(Cl)cc2)nc1CS(=O)CC(=O)NCc1ccc2c(c1)OCO2 (stereo not drawn),-4,i,-11,14,nt,0,2,-2,
CC(C)NC(=S)NC(=O)c1ccc(-c2ccccc2)cc1,-12,i,nt,22,37,-2,-7,-21,
COCCN(C(=O)Cc1cccs1)c1nnc(-c2ccncc2)s1,1,i,-22,0,1,33,-3,-3,
Cc1cc(C(=O)NNC(=O)c2ccc(Cl)cc2Cl)c(C)o1,nt,i,-19,nt,10,nt,2,2,
CCN(CC)S(=O)(=O)c1ccc(C(=O)C(C#N)c2ccccn2)cc1 (stereo not drawn),0,i,-7,nt,nt,8,7,-3,
CCCNC(=O)N(C)C[C@H]1Oc2ncc(C#CCc3ccccc3)cc2C(=O)N([C@H](C)CO)C[C@H]1C,nt,nt,-13&-2,11[16.7 µM],nt,nt,-5,1,
CCOc1cc(/C=C2/C(=N)N3C(=NC2=O)SN=C3S(C)(=O)=O)ccc1OC(=O)c1ccco1,3,i,-15,nt,-15,7,-62,3,
CCOC(=O)C1CCCN(C(=O)CNC(=O)Cn2ccc3ccccc3c2=O)C1 (stereo not drawn),-9,nt,2,-31,-13,1,1,-1,
COC(=O)c1ccc(CSc2nc(N3CCOCC3)c3c(c2C#N)CC(C)(C)OC3)o1,2,i,12,nt,-13,7,1,0,
CC1(C)Cc2c(C#N)c(NCCN3CCOCC3)nc(-c3ccccc3)c2CO1,4,i,-10,4,1,5,-1,-1,
Cc1cc(C(=O)Nc2cccnc2)on1,-3,i,-23,3,-5,13,-1,1,
Nc1c(C(=O)NC23CC4CC(CC(C4)C2)C3)sc2nc3c(c(C(F)(F)F)c12)CCC3,-4,i,-19,1,nt,8,-1,2,
O=S(=O)(c1cccc(-c2nnco2)c1)N1CCOCC1,-8,i,nt,3,4,9,-4,-1,
